B2AR ag: human beta-2 adrenergic receptor agonism by FAP. P07550. Am2.2-beta2AR cells, FAP receptor internalization, flow cytometry; reference of the scale not given here. response, % (test concentration not listed). 340,000 tested, 0.43% active;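 active means response above a set limit, near 3 SD of response in nonfluorescent compounds, cut at about 42% in these data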;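 further: stock transfer was 100 nL into about 11 µL; a reference agonist was the positive control; negative values mostly stem from fluorescent compounds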
Target sequence (P07550 whole entry, looked up): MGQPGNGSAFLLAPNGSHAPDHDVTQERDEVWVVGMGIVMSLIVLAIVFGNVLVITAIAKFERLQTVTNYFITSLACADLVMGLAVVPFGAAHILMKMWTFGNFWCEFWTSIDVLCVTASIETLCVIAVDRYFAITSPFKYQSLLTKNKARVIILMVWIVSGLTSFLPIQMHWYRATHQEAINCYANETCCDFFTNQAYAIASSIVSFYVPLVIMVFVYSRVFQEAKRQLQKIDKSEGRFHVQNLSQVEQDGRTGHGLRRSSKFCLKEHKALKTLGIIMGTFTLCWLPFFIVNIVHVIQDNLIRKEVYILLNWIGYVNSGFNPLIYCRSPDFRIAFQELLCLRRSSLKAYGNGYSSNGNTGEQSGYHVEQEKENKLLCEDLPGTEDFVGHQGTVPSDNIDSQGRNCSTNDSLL
UCH37 DUB inh: human UCH37 deubiquitinating enzyme inhibition; 330,000 tested, 0.33% active; purified proteasome/UCH37, Ub-AMC cleavage fluorescence; inhibition, % (no concentration beside the values); Q9Y5K5;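 active means mean of two replicates above 20%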;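 further: 0% = compound-free wells with enzyme and 100% = wells lacking proteasome; stock transfer was 100 nL into about 20 µL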
Target sequence (Q9Y5K5 whole entry, looked up): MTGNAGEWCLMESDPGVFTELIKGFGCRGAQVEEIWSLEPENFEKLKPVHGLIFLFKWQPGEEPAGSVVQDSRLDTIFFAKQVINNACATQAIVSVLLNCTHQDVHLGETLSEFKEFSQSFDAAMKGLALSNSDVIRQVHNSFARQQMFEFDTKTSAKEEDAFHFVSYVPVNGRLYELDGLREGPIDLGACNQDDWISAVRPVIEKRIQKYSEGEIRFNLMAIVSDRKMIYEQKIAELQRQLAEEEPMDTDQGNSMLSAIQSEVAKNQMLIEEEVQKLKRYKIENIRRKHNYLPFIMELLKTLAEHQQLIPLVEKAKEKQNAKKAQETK
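assay system = human UCH37 enzyme supplied as purified proteasome complex | amount = proteasome at 0.15 nM in the dispensed enzyme solution | schedule = 30 min compound-proteasome preincubation then 25 min substrate reaction, room temperature | measured by = fluorescence, ex 355 nm, em 460 nm | benchmarks = no-proteasome wells (full inhibition) and compound-free wells (no inhibition)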
Bfl-1 A1 inh: inhibitors of the anti-apoptotic protein A1, read as caspase activation | 330,000 tested, 0.066% active | caspase activation, % (no concentration beside the values) | MEF A1-2A-BIM cells, Caspase-Glo 3/7 luminescence, 3 h; percent of clofoctol response, vehicle zero;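 active means over half of replicate activation scores above 10%, or exactly half above 10 with the replicate mean above 10; inconclusive means replicate mean below 10 yet half the replicates above 10; inactive means over half of replicates below 10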;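 further: wells of about 30 µL received 50 nL stock; many hits fall short of the cut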
Calb FLC: C. albicans growth modulation with fluconazole | growth inhibition, % (no concentration beside the values) | 300,000 tested, 0.57% active | AID 1979 | C. albicans CaCi-2 (fluconazole-resistant clinical isolate) + fluconazole, Alamar Blue growth, 48 h;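 active means most replicates above 75%; inconclusive means exactly half above 75%; inactive means most below 75%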;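 further: all wells also contain fluconazole at 8 µg/ml as a sub-toxic cotreatment; 0% = median of DMSO wells and 100% = median of geldanamycin control wells; wells of about 8 µL received 7.5 nL stock; the first replicate is given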
LANA-H2A inh: blocks KSHV LANA binding to histone H2A/H2B. Q9QR71. cell-free LANA-H2A/H2B peptide, fluorescence polarization. inhibition, % (concentration not given with the values). 320,000 tested, 0.6% active; in the data active means inhibition mostly above about 10%, no sharp cut-off; inactive means mostly below about 6.7%;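 further: stock transfer was 7.5 nL into about 10 µL; 0% = median of vehicle wells and 100% = median of positive control wells; one replicate is shown; the record names a cut of 25% in any replicate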
Beta apoptosis: blocks beta cell apoptosis. protection from apoptosis, % (concentration not given with the values). INS-1E cytokine-induced death, ATP luminescence, 48 h; percent of positive-control rescue, neutral wells zero. 300,000 tested, 0.8% active;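 active means all replicates at 75% or more, or half of them and the mean; inconclusive means half reach 75% but not the mean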;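 further: 0% = cytokine-treated negative control wells and 100% = positive control rescue; higher means more ATP so stronger rescue from cytokine killing; wells of about 40 µL received 100 nL stock; the first replicate is given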
T cruzi repl: T. cruzi replication inhibition; inhibition, % (test concentration not listed); T. cruzi beta-gal in NIH3T3, luminescence, 90 h; 300,000 tested, 1.4% active;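 active means mean inhibition across valid replicates above about 55%, limit read from the data; inconclusive means mean below that limit but half or more replicates reach it; inactive means mean below it, under half of replicates reach it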;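 further: signal also drops with host cell toxicity which is not excluded here; 0% = plate median of DMSO wells and 100% = zero luminescence signal; higher percent means less beta-gal luminescence so fewer parasites; stock transfer was 50 nL into about 50 µL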
RanGTP-Impb inh: disruptors of Ran-importin-beta complex formation – biochemical, FRET, CFP-Ran, YFP-importin-beta, homogeneous, primary screen. cell-free CFP-Ran/YFP-importin-beta FRET ratio. inhibition, % (test concentration not listed). 300,000 tested, 1.1% active. AID 2216;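 active means most replicates above 15%; inconclusive means exactly half above 15%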;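 further: 0% = DMSO wells and 100% = Ran loaded with GDP instead of GTP; wells of about 40 µL received 100 nL stock; the first replicate is given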
* hit, by the source's call; u = inconclusive; x = not tested or not shown.

SMILES	B2AR ag	UCH37 DUB inh	Bfl-1 A1 inh	Calb FLC	LANA-H2A inh	Beta apoptosis	T cruzi repl	RanGTP-Impb inh
Cc1cc(C)nc(NS(=O)(=O)c2ccc(N3Cc4ccccc4C3=O)cc2)n1	-26	3.4	0.6	23	0.7	1	19	-2.3
Cc1ccc2cc(CN(CC3CCCO3)S(=O)(=O)c3ccccc3)c3nnnn3c2c1 (stereo not given)	-9	1.3	0.8	3	-2.0	2	18	0.4
O=S(=O)(Nc1ccc(F)cc1)c1ccc(S(=O)(=O)N2CCOCC2)cc1	-2	2.4	-0.1	x	-2.5	-3	x	x
CS(=O)(=O)N1CCC(C(=O)N2CCN(c3ccccc3)CC2)CC1	6	2.3	0.6	32	2.9	-4	-2	2.3
COCCCNC(=O)c1cc(S(=O)(=O)NCCCN2CCCC2=O)ccc1Cl	-10	-0.3	0.8	x	-1.4	-1	x	x
CCC1CCCCN1C(=O)CSc1nnc(-c2ccc(Cl)s2)o1 (stereo not given)	-4	3.1	-0.5	14	-5.2	5	20	3.3
Cc1cc(C)nc(N2CCC(C(=O)NCCc3ccc(F)cc3)CC2)n1	7	-3.0	-0.8	-33	-5.6	2	13	-1.0
COc1ccc(CNC(=O)COC(=O)c2c[nH]c(=O)[nH]c2=O)cc1OC	4	2.7	-0.4	-12	-4.5	-6	-8	-5.1
CCn1cc(C(=O)NCc2ccco2)c(=O)c2cc(S(=O)(=O)N3CCC(C)CC3)ccc21	-3	x	-0.2	8	-1.3	6	-29	-1.3
O=C(CC1SC(=Nc2ccc(OC(F)F)cc2)N(CCN2CCOCC2)C1=O)Nc1ccc(F)cc1F (stereo not given)	7	-0.8	-0.8	13	-4.4	-8	19	0.3
O=C(NCc1ccccn1)C1CCN(S(=O)(=O)c2ccccc2)CC1	0	2.6	0.4	-2	-2.9	7	-6	5.2
Cc1ccc(-c2noc(CCC(=O)NCCN3CCN(Cc4ccccc4)CC3)n2)cc1	-2	2.9	0.9	-6	-15	6	x	x
O=C(CCCN1CCC(c2ccccc2)C1)c1ccc2c(c1)OCCO2 (stereo not given)	-3	2.8	-0.1	-26	-6.7	0	u	-0.9
CC(C)CC(=O)Nc1c2c(nn1-c1ccc(F)cc1)CS(=O)C2 (stereo not given)	0	x	0.9	2	1.4	-2	-10	0.1
CCC(C)NC(=O)c1cc(OC)c(OC)c(OC)c1 (stereo not given)	-1	-0.1	0.5	14	4.2	-1	-9	9.4
O=C(O)Cn1c(=O)c2c(c3ccccc31)CCC2	4	x	-0.6	-3	-0.5	0	-4	1.9
O=C(CSc1ccccc1F)Nc1ccc(N2CCOCC2)cc1	-1	-0.1	-0.1	x	18*	14	x	x
COc1ccc(CCC(C)N2CCC(Oc3ccc(C(=O)N4CCCC4)cc3)CC2)cc1 (stereo not given)	-4	2.4	-0.2	-20	2.2	-1	20	1.9
Cc1ccc(C(C(=O)NC2CCCC2)N(Cc2ccc3c(c2)OCO3)C(=O)Cc2cccs2)cc1 (stereo not given)	0	36*	-0.5	x	2.7	-4	34	0.5
CCc1ccccc1NC(=O)c1cnc2scc(C)n2c1=O	14	7.3	-0.7	-5	2.1	x	9	-9.8
O=C(/C=C/c1ccccc1F)c1cccc([N+](=O)[O-])c1	7	6.3	-0.5	3	1.4	-12	0	0.6
Cc1nn(C)c(C)c1Nc1ccc(N2C(=O)C3CC=CCC3C2=O)cc1[N+](=O)[O-] (stereo not given)	11	7.6	0.0	6	-2.2	9	-8	-1.0
CCCNC(=O)N1CCC(Cc2ccccc2)CC1	-10	2.6	0.3	-12	3.0	-5	9	-1.8
Cc1cc(N2CCN(C(=O)c3ccco3)CC2)n2nc(-c3cccc(F)c3)cc2n1	-28	-12	0.1	21	-3.3	2	21	u
COc1ccc2oc(C(=O)OCC(=O)N(C)C3CCS(=O)(=O)C3)c(C)c2c1 (stereo not given)	-9	-58	-1.9	-5	2.5	1	-12	1.6
CCOc1ccc(NC(=O)Cn2nnc(C(=O)NCc3ccccc3OC)c2N)cc1	2	1.3	0.1	-2	-1.0	4	-3	-1.8
CCc1cc(Cn2nc(-c3ccccc3)cc2C(=O)NCc2cccc(C(F)(F)F)c2)on1	2	x	0.0	1	-7.4	-1	23	-7.8
CCOC(=O)c1nnc(-c2ccc(C)cc2)nc1Oc1ccccc1Cl	-7	4.0	-0.5	5	1.8	-3	11	1.9
Cc1cc(C)c2c(N)c(C(=O)c3ccccc3Cl)sc2n1	-14	-23	-0.1	-4	2.1	3	56*	6.3
CN1CCN(C(=S)C(=O)Nc2ccccc2)CC1	2	-0.7	-0.2	-11	-1.0	-3	-13	4.2
COc1ccc(NC(=O)CSc2ccc3c(c2)OCCO3)cc1S(N)(=O)=O	-6	1.1	1.7	x	-1.1	3	x	x
O=C(CSc1nc2ccccc2c(=O)n1-c1ccc(Cl)cc1)c1ccco1	-6	3.4	0.1	5	-6.3	2	33	1.0
COC(=O)[C@@H]1C[C@H]2CC[C@H](O)C[C@H]2N1Cc1ccc(-c2ccccc2)cc1	1	3.6	0.4	-20	0.5	2	-29	4.8
O=C(c1ccc(COCC(F)(F)F)o1)N1CCCCCC1	5	2.7	0.1	-6	-0.4	5	-12	3.7
CC(C(=O)N1CCN=C1c1ccccc1)N1C(=O)c2ccccc2C1=O (stereo not given)	-2	-0.1	0.7	6	-0.8	6	-27	-4.1
CC(C)C(=O)NC(NC(=S)Nc1ccc(S(N)(=O)=O)cc1)C(Cl)(Cl)Cl (stereo not given)	-2	0.2	-0.2	12	0.6	-5	-1	2.6
O=C(CNS(=O)(=O)c1ccccc1)NCC(=O)OCc1ccc(Cl)cc1	9	1.7	0.3	0	3.6	-3	0	-0.2
CCOC(=O)Cc1ccc(NS(=O)(=O)c2ccc(SC)cc2)cc1	-1	-1.0	0.7	-7	0.5	-4	-10	-0.4
O=C(N=C1SC2CS(=O)(=O)CC2N1Cc1ccc(F)cc1)C1CCCO1 (stereo not given)	-3	5.0	-1.5	0	-2.2	-1	9	3.2
O=C(O)[C@H]1CCCC[C@H]1C(=O)Nc1cc([N+](=O)[O-])ccc1F	7	4.4	0.2	-12	1.0	-5	-2	0.5
Cc1cc(Cl)c(S(=O)(=O)NCc2cccnc2)cc1OCC(N)=O	-6	2.4	0.7	-4	-3.0	0	-11	1.7
CC(C)[C@H](NC(=O)c1ccco1)C(=O)OCC(=O)N1CC(=O)Nc2ccccc21	-2	1.0	0.4	-10	13	2	-13	0.2
CCCCN(C)CCCNC(=O)CC1Oc2ccccc2NC1=O (stereo not given)	-4	4.1	0.8	-3	1.8	x	13	-2.8
Cn1c(=O)cc(SCC(=O)NCCC2=CCCCC2)c2cc(Cl)ccc21	-24	2.0	1.5	38	2.5	-11	21	-1.8
CC(NCc1ccc2c(c1)OCO2)c1ccccc1 (stereo not given)	-9	1.9	-0.8	-25	3.9	-1	-4	-3.9
CCN(CC)S(=O)(=O)c1ccc(/C=C/C(=O)Nc2ccc(F)cc2F)cc1	7	4.6	1.5	-31	-1.2	11	-34	21*
O=C(O)CCn1c(=O)[nH]c2ccccc2c1=O	3	5.6	2.5	1	0.5	0	-1	0.4
Nc1nc(N2CCN(C(=O)c3ccco3)CC2)nc2ccccc12	-8	-213	-0.8	-5	-2.9	0	-4	-2.0
O=C(COc1ccccc1)N1CCc2ccccc2C1	-2	0.8	0.3	1	3.9	-5	-1	-2.8
COC(=O)Nc1nnc(/C=C/c2ccccc2)s1	1	-227	-3.5	-12	2.4	-3	3	-7.4
O=C(CSc1nc2cc(Cl)ccc2s1)NC1CCCc2ccccc21 (stereo not given)	-4	3.7	0.0	-7	5.3	4	-10	-2.1
O=c1cc(/N=C/c2coc3cc(Br)ccc3c2=O)[nH]c(=S)[nH]1	-4	x	0.9	-5	-2.7	-3	-1	-2.8
COc1ccc(CN(C(=O)CN2C(=O)C(C)Oc3ccccc32)C2CCCC2)c(OC)c1 (stereo not given)	-3	2.3	0.6	16	4.4	3	49	5.2
COC(=O)Cc1ccc(NC(=S)N2CCN(c3cccc(O)c3)CC2)cc1	15	2.9	0.9	4	1.7	-6	-8	-4.7
O=C(Nc1ccccc1C(=O)NC1CC1)c1ccccc1	6	-1.5	1.3	x	x	-2	x	x
CS(=O)(=O)N(CC(=O)NCC1CCCO1)Cc1ccc(Cl)cc1 (stereo not given)	3	0.7	-0.9	3	2.4	x	-9	0.0
Cc1ccc(C)c(N(CC(=O)NCCSCc2ccco2)S(C)(=O)=O)c1	-7	-1.6	0.5	2	-0.6	-1	3	1.2
COc1ccc2oc(=O)c(C(=O)NCc3ccccn3)cc2c1	-7	-124	-1.4	4	-6.6	-4	-2	12
NC(=O)c1nsc(C(=O)N(CC(=O)NCc2ccccc2)c2ccc(F)cc2)c1N	-5	-21	1.0	-7	-1.6	8	-2	0.3
O=C(Nc1ccc(Cl)cc1)c1ccc(Br)cc1F	-4	3.6	-0.3	-14	0.9	2	8	-1.5
Further records
SMILES	B2AR ag	UCH37 DUB inh	Bfl-1 A1 inh	Calb FLC	LANA-H2A inh	Beta apoptosis	T cruzi repl	RanGTP-Impb inh
COc1ccc2nc(SCC(=O)/C(C#N)=C(\C)N)[nH]c2c1	-4	1.8	0.3	17	0.2	-4	-8	3.1
COc1cc(C=C2C(=O)OC(C)(C)OC2=O)ccc1OCC(=O)Nc1ccccc1	1	3.9	0.7	3	0.6	-5	-3	-3.1
O=C(COC(=O)c1cc(S(=O)(=O)NCc2ccccc2)ccc1O)c1cc2ccccc2o1	-2	-1.6	0.9	-6	-9.3	-4	-1	1.0
COCC(=O)Nc1cc(Cl)ccc1C	15	-1.0	0.8	-15	-2.8	-11	-2	-1.5
O=C1/C(=C\c2cc([N+](=O)[O-])ccc2O)SC(=S)N1Cc1ccc(Cl)cc1	-407	4.6	0.0	86*	-24	4	-1	-53
O=c1[nH]c2ccc(NC(=S)Nc3ccc(F)cc3)cc2[nH]1	8	-0.8	-0.3	4	-6.7	-4	-9	6.4
Cn1cc(S(=O)(=O)N2CCCC(C(=O)O)C2)cn1 (stereo not given)	-1	-2.4	0.6	25	2.3	x	-7	0.1
CCCCn1ccnc1C(=O)c1ccc(S(=O)(=O)N2CCCC2)cc1	9	2.4	0.2	-5	3.5	2	7	3.2
C=CCNC(=O)Nc1ccc2nc(C)sc2c1	9	-3.2	-1.3	21	2.1	-2	7	5.0
CCCOc1ccc(NC(=O)c2cc3cc(C)ccc3[nH]2)cc1	1	-4.8	-0.5	37	-2.3	2	3	1.1
Cc1ccccc1NC(=O)Cc1nc(COC(=O)CCOc2ccccc2)cs1	-1	0.1	0.4	0	-2.8	-4	-6	-0.7

Random excerpt: three records from the list.
SMILES	B2AR ag	UCH37 DUB inh	Bfl-1 A1 inh	Calb FLC	LANA-H2A inh	Beta apoptosis	T cruzi repl	RanGTP-Impb inh
C=CCNC(=O)Nc1ccc2nc(C)sc2c1	9	-3.2	-1.3	21	2.1	-2	7	5.0
O=c1[nH]c2ccc(NC(=S)Nc3ccc(F)cc3)cc2[nH]1	8	-0.8	-0.3	4	-6.7	-4	-9	6.4
O=C1/C(=C\c2cc([N+](=O)[O-])ccc2O)SC(=S)N1Cc1ccc(Cl)cc1	-407	4.6	0.0	86*	-24	4	-1	-53
